VDR inh: Inhibitors of the vitamin D receptor (VDR): qHTS | 0.93% of 400,000 active | VDR-SRC2-3 peptide fluorescence polarization, 2 h | AID 504847, 2011 | Vitamin D3 receptor (Homo sapiens), P11473 | Potency, µM, for the others: max response, negative = inhibition, actives largely listed as inhibitors; active = well fitted inhibition curve with a large enough effect; inconclusive = small, poorly fitted or top-dose-only effect, or another doubt; inactive = no such curve, though single readings can be large or run the other way; also: series mostly up to about 120 µM
Target sequence (P11473 whole entry, looked up): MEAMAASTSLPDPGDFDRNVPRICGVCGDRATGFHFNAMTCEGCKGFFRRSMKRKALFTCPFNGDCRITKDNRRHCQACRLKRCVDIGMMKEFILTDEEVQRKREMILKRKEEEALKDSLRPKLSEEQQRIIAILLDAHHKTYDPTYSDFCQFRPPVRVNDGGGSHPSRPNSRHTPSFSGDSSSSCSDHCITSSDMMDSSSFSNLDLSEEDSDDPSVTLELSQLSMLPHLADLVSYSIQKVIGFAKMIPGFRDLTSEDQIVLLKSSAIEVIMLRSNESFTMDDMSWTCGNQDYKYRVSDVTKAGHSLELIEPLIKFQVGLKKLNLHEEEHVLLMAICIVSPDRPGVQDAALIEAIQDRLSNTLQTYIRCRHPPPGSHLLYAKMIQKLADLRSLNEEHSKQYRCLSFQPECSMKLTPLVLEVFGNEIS
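Reagent solutions, kept cold and dark, are dispensed first; compounds are then pinned in at 23 nl, plates briefly spun, and incubated 2 h at ambient temperature. Inhibition of VDR–SRC2-3 peptide binding is read by fluorescence polarization.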
An asterisk follows results filed as active; ? = inconclusive; & = joins results of further samples. % is scaled to controls: 0 for no effect and ±100 for the full control effect; potency is read from the fitted curve at half-maximal effect.

SMILES	VDR inh
Cc1cccc(Cn2nnc3c(=O)[nH]c(C4CCCN(C(=O)c5ccccc5Cl)C4)nc32)c1 (configuration not stated)	3%
O=C1CNC(=O)/C1=C\N1CCCCC1	-14%
COc1cccc2cc(/C(=N/O)c3ccccc3)oc12	7%
Cc1noc(C)c1COc1ccc(C(=O)OCC(=O)Nc2c(C)n(C)n(-c3ccccc3)c2=O)cc1	4%
COc1cc(OC)c(OC)cc1/C=N/NC(=O)c1ccc(=O)n(C)c1	-2%
CN(CCCNC(=O)Cn1ncc2c([nH]c3ccccc32)c1=O)Cc1ccccc1	5%
CC(C)Cn1c(N)c(C(=O)COC(=O)c2ccc(F)cc2)c(=O)n(C)c1=O	7%
O=C(O)c1cn(-c2ccc(F)c(F)c2)c2c(F)c(F)c(F)c(F)c2c1=O	-10%
Cc1ccc(-c2ccc(/C=N/NC(=O)CN3CCOCC3)o2)cc1[N+](=O)[O-]	2.5µM*
O=C(CNc1ccc(Br)cc1)Nc1cccc(S(=O)(=O)N2CCCC2)c1	-11%
COc1ccc(-c2nc(CN3CCN(Cc4cccc(Cl)c4)CC3)c(C)o2)cc1	-15%
CC1CC(=O)C2=C(C1)Nc1ncnn1C2c1ccccc1 (configuration not stated)	-7%
Cc1cc(C(=O)Nc2c(F)cc(F)cc2Br)c(C)o1	?
O=C(c1cccc(F)c1)N1CCN(c2ccc([N+](=O)[O-])c3cccnc23)CC1	-13%
O=C(Nc1ccc(NC(=O)c2cccnc2Cl)cc1)c1cccc(Cl)c1	-2%
CS(=O)(=O)Nc1ccccc1C(=O)NCc1ccccc1Cl	7%
Cc1ccc(NC(=S)N(Cc2cccs2)Cc2cc3cccc(C)c3[nH]c2=O)cc1	-16%
NC(=S)N/N=C/c1ccccc1OCc1cccc(Cl)c1	-1%
CCOCCCNCc1cc(Br)ccc1OCc1ccccc1	-6%
O=C(Cn1cc(C(=O)C2CCCCC2)c2ccccc21)NCC1CCCO1 (configuration not stated)	-8%
CCN(CC(=O)Nc1ccc2c(c1)OCCO2)S(=O)(=O)c1ccc(F)cc1	-1%
CN(CC(=O)Nc1ccccc1Br)C(=O)CNC(=O)c1cccs1	-7%
Cc1ccc(OCC(=O)Nc2c(C(=O)c3ccc(Cl)cc3)oc3ccccc23)cc1C	2%
Cc1ccc(NC(=O)c2cnn3c2NC(c2ccccc2)=CC3c2ccccc2)cc1 (configuration not stated)	21%
O=C1C(=O)c2c(ccc3ccccc23)-c2ccccc21	?
(cont.)
SMILES	VDR inh
CCc1noc(C)c1C(=O)Nc1nc(-c2cccs2)cs1	-26%
NS(=O)(=O)c1cccc(NC(=S)NC(=O)c2cccc([N+](=O)[O-])c2)c1	-17%
CC(C)c1ccc(NC(c2nnc(-c3ccccc3)o2)c2ccc(F)cc2Cl)cc1 (configuration not stated)	7%
O=S1(=O)N=C(N/N=C/c2ccco2)c2ccccc21	-2%
CN(CC(=O)NCc1cccs1)CC(=O)Nc1ccc(F)c(F)c1F	-12%
Cc1c2cnn(CC(=O)NCCCN3CCCCC3C)c(=O)c2c(C)n1Cc1ccccc1 (configuration not stated)	2%
CC1CCCN(S(=O)(=O)c2cc3c4c(c2)CC(=O)N4CCC3)C1 (configuration not stated)	1%
O=C(c1cc(COc2c(F)cccc2F)on1)N1CCN(C2CCCCC2)C(=O)C1	-3%
Cc1ccc(S(=O)(=O)N(C)CCCC(=O)Nc2ccncc2)cc1	-16%
COC(=O)c1ccc(CSc2ccc(S(=O)(=O)N3CCCCC3)cn2)cc1	0%
CCCN(C(=O)c1c(C)oc2ncnc(N3CCOCC3)c12)c1ccc(Cl)c(Cl)c1	-23%
CC(=O)N(C1=C(Cl)C(=O)c2ccccc2C1=O)c1ccc(C(=O)O)cc1	7.1µM*
CCCCC[C@H](O)C/C=C1/C(=O)C=C[C@@H]1C/C=C\CCCC(=O)O	50µM*
Cc1cccc(NCc2ccc(O)c3ncccc23)c1C	?
O=C(N/N=C\c1cn(-c2ccccc2)nc1-c1ccccc1)c1ccc2c(c1)OCO2	18%
Cn1c(=O)c2c(nc(N3CCN(c4ccccn4)CC3)n2Cc2ccc(Cl)cc2Cl)n(C)c1=O	-18%
Cc1n[nH]c(C)c1CCc1nc2c3ccccc3nc(SCC(N)=O)n2n1	9%
Cc1nc(SCC(=O)c2ccccc2)n[nH]1	50µM*
O=c1[nH]c(C2CCCN(S(=O)(=O)c3ccccc3)C2)nc2c1nnn2Cc1ccccc1Br (configuration not stated)	-16%&10%
Cc1cccc(/C=C2\CS/C(=C\c3cccc(C)c3)C2=O)c1	-19%
Cc1ccc(C2CC(=O)N(Cc3ccc(F)cc3)c3c2c(C)nn3-c2nc(C)cc(C)n2)cc1 (configuration not stated)	6%
Cc1ccc(CNC(=O)C2CC(c3ccc(C(F)(F)F)cc3)=NO2)o1 (configuration not stated)	-10%
c1ccc(-c2cn(CC3CCCCC3)nn2)cc1	1%
O=C(CSc1nnc(NC(=O)C2CC2)s1)NCc1ccccc1Cl	12%
CCCCN1C(=O)N(C)C2NC(=S)NC21 (configuration not stated)	10%
The list continues.
SMILES	VDR inh
COc1cc(-c2nnc(NC(=O)CS(=O)(=O)c3ccc(C)cc3)o2)cc(OC)c1OC	-9%
CCC(Oc1ccccc1)C(=O)NCCOC (configuration not stated)	8%
Cc1cc(C(=O)N/N=C/c2cccs2)no1	-14%
CCC(Oc1ccccc1)C(=O)N(Cc1ccccc1)c1ccccn1 (configuration not stated)	7%
Cc1nc(CC(=O)O)c(-c2ccccc2)s1	12%
CC(=O)N1CCc2cc(NC(=O)c3ccc(C)cc3)ccc21	-4%
Cc1ccc(C2CC(c3ccccc3OC(F)F)Nc3ncnn32)cc1 (configuration not stated)	6%
CC1=C(C#N)C(=O)NC(=O)/C1=C\c1ccc(-c2ccc(C)cc2[N+](=O)[O-])o1	?
CCOCCCNC(=O)c1ccc2c(=O)n(Cc3ccc4c(c3)OCO4)c(=S)[nH]c2c1	-6%
CCn1c(-c2cc(Br)cc(OC)c2O)nc2cc(S(=O)(=O)N(C)C)ccc21	-20%
COc1ccc(Cl)cc1S(=O)(=O)N(C)CC(=O)N1CCOCC1	-6%
Cn1ncc([N+](=O)[O-])c1C(=O)Nc1cccc(Cl)c1	2%
COc1cccc(Cn2c(=O)ccc3ccccc32)c1	-1%
O=C(OCc1nnc(-c2ccccc2)o1)c1ccc(Br)o1	8%
Cc1ccc(N=Nc2c(N)nn3c(N)c(C#N)c(C)nc23)cc1	15%
CC(=O)c1cccc(NC(=O)NCc2ccco2)c1	-5%
CN1CCN(CC(=O)Nc2nc(-c3c[nH]c4ccccc34)cs2)CC1	-11%
Cc1ccccc1CSCC(=O)Nc1ccccc1-c1ccccc1	-3%
S=C(c1ccc(Br)cc1)N1CCCC1	3%
Cn1c(-c2ccc(F)c(F)c2)cc2onc(-c3ccccc3)c2c1=O	8%
O=C(c1nnsc1S(=O)(=O)c1ccc(Cl)cc1)N1CCOCC1	?
COc1ccccc1CNC(=O)CSc1nc(-c2ccccc2)cn1N	-9%
COc1ccccc1-c1noc(-c2cc(OC)c(OC)c(OC)c2)n1	?
CC(=O)Nc1ccc(-c2ccc(NC(C)=O)cc2)cc1	-14%
CC(C)C(=O)NC(c1ccc([N+](=O)[O-])cc1)c1c(O)ccc2ccccc12 (configuration not stated)	2%

Compounds from the list above containing an NH in an aromatic ring, in the order listed:
SMILES	VDR inh
Cc1cccc(Cn2nnc3c(=O)[nH]c(C4CCCN(C(=O)c5ccccc5Cl)C4)nc32)c1 (configuration not stated)	3%
CN(CCCNC(=O)Cn1ncc2c([nH]c3ccccc32)c1=O)Cc1ccccc1	5%
Cc1ccc(NC(=S)N(Cc2cccs2)Cc2cc3cccc(C)c3[nH]c2=O)cc1	-16%
Cc1n[nH]c(C)c1CCc1nc2c3ccccc3nc(SCC(N)=O)n2n1	9%
Cc1nc(SCC(=O)c2ccccc2)n[nH]1	50µM*
O=c1[nH]c(C2CCCN(S(=O)(=O)c3ccccc3)C2)nc2c1nnn2Cc1ccccc1Br (configuration not stated)	-16%&10%
CCOCCCNC(=O)c1ccc2c(=O)n(Cc3ccc4c(c3)OCO4)c(=S)[nH]c2c1	-6%
CN1CCN(CC(=O)Nc2nc(-c3c[nH]c4ccccc34)cs2)CC1	-11%

Next part.
SMILES	VDR inh
Cc1ncc([N+](=O)[O-])n1CC(=O)NC1CCCCCC1	-17%
O=C(/C=C/c1ccc[nH]1)c1ccccc1	79µM*
COc1cccc(C(=S)N2CCOCC2)c1OS(=O)(=O)c1ccc(Cl)cc1	-5%
O=C(Nc1ncccc1O)c1cccc(S(=O)(=O)NCc2ccccc2)c1	-22%
CN(C(=O)CSc1nc2ccc(NC(=O)c3cccc(F)c3)cc2s1)c1ccccc1	-9%
Cc1cccc(C(=O)Nc2c3c(nn2-c2ccc(Cl)cc2)CS(=O)(=O)C3)c1	12%
O=C(COC(=O)c1cccnc1Cl)Nc1cc(S(=O)(=O)N2CCOCC2)ccc1Cl	-11%
COc1ccc(NC(=O)CC2C(=O)N(c3ccc(OC)cc3)C(=O)N2C2CCCCC2)cc1 (configuration not stated)	-23%
Cc1ccc(NC(=O)NC2CCCCC2)cc1S(=O)(=O)N1CCOCC1	5%
CCN(CC)c1ccc(NC(=O)CN2C(=O)NC3(CCc4ccccc43)C2=O)cc1 (configuration not stated)	6%
COc1ccc(C(=O)NCCCOC(C)C)cc1OC1CCN(C(C)=O)CC1	7%
Cc1ccc(S(=O)(=O)N(C)c2ccc(OCC(=O)Nc3cc(C(=O)O)ccc3Cl)cc2)cc1	11%
CC1=C(C(=O)N2CCOCC2)C(c2ccc(Cl)cc2)NC(=S)N1 (configuration not stated)	-5%
Cc1ccc2nc(N(Cc3cccnc3)C(=O)C3COc4ccccc4O3)sc2c1 (configuration not stated)	12%
COc1ccccc1NS(=O)(=O)c1cn(C)c(C)n1	5%
CCCCC1=CC2=C(c3ccco3)C(=O)C(C)(OC(=O)c3ccc(OC)cc3)C(=O)C2=CN1c1ccccc1 (configuration not stated)	-9%
COCCCn1c(C)nnc1SCC(=O)NCc1ccco1	10%
CCCN1CCN(c2ncc3c(n2)CCN(Cc2ccc(OC)c(OC)c2OC)C3)CC1	7%
S=C(Nc1ccc(Oc2ccccc2)cc1)NC1CCCCC1	-7%
Cc1ccc(NC(=O)C2=COCCO2)cc1S(=O)(=O)N1CCOCC1	-22%
FC(F)(F)c1nnc2n1N=C(c1ccccc1)CS2	-21%
Cc1cc(Nc2ccc(F)c(F)c2)nc(-c2ccccc2O)n1	?
Cc1nn(-c2ccccc2)c(C)c1NC(=O)c1cccs1	8%
CCOc1ccccc1NC(=O)COc1cccnc1[N+](=O)[O-]	-1%
CCc1nc2ccccc2c(C(=O)Nc2cccc(C)c2)c1C	21%
(next part)
SMILES	VDR inh
Cc1cc2n(n1)CCCN2C(=O)Nc1ccc(C)c(Cl)c1	20%
CC(=O)Nc1ccc(S(=O)(=O)NCc2cc(=O)n(C)c(=O)n2C)cc1	20%
CC(C)C(=O)NC(c1ccco1)c1ccc2cccnc2c1O (configuration not stated)	5%
O=C(CN1C(=O)c2ccccc2S1(=O)=O)Nc1ccc(S(=O)(=O)N2CCCC2)cc1	8%
COc1ccc(N=C(NN)c2ccc3ccccc3n2)cc1	-27%
CCO[C@H]1OC(C(=O)N2CCN(Cc3ccccc3)CC2)=C[C@@H](c2cn(C(C)=O)c3ccccc23)[C@@H]1CCCO	6%
COC(=O)/C=C1/S/C(=N/NC(=O)c2ccccc2OC)NC1=O	-2%
O=C(CSCc1ccccc1F)NCc1ccc(F)cc1	-9%
CC(=O)c1ccc(NS(=O)(=O)c2cnc(N)nc2)cc1	13%
CCOC(=O)N1CCN(C(=O)c2ccc3c(=O)n(-c4ccccc4F)c(=S)[nH]c3c2)CC1	-6%
O=C1NC(=O)C(Nc2cccc3ccccc23)S1 (configuration not stated)	-4%
Cc1cc(C)c(NC2=NCC(=O)N2C2CCCCC2)c(C)c1	6%
CCCOc1ccc(OC(=O)c2c(-c3ccccc3Cl)noc2C)cc1	12%
O=S(=O)(Nc1ncn[nH]1)c1ccc2ccccc2c1	0%
CN1CCc2c(c3c(n2C)CCN(C)C3c2ccc(F)cc2)C1c1ccc(F)cc1 (configuration not stated)	2%
Cc1ccc(C(=O)c2oc3ccccc3c2NC(=O)c2cc(-c3ccccc3O)n[nH]2)cc1	0%
O=C(NC(=S)Nc1ccccn1)c1cc(-c2ccccc2)nc2ccccc12	-3%
CCc1ccccc1NC(=O)CSc1nnc(-c2ccco2)n1N	-15%
O=C(Nc1c(Cl)cc([N+](=O)[O-])cc1Cl)c1cc(Cl)cc(Cl)c1O	?
CCc1ccc(N2CCN(C(=O)c3ccc(OC)c(OC)c3)CC2)cc1	-7%
Cc1ccc(S(C)(=O)=O)cc1S(=O)(=O)Nc1ccccc1	-4%
Cc1ccc(-c2nn(C)c(=O)c3ccccc23)cc1S(=O)(=O)NCCN(C)C	1%
CCCCCC(=O)Nc1cccc(S(=O)(=O)NC2=NCCC2)c1	-13%
O=C(OCCc1ccccn1)c1cccc([N+](=O)[O-])c1	-4%
Nc1nc(NC(=O)CCC(=O)O)nn1-c1ccccc1	-17%
(cont.)
SMILES	VDR inh
CN(C(=O)c1ccncc1)c1nnc(-c2ccccn2)s1	1%
COC(=O)c1ccc(NC(=O)c2cccc(C)c2)cc1	0%
c1ccc(-n2nnnc2NCCc2c[nH]c3ccccc23)cc1	1%
COC(=O)Nc1sc2c(c1C(=O)NC1CC1)CCCCCC2	-6%
Cc1c(C)c2ccc(OC(C)C(=O)N[C@@H](Cc3c[nH]c4ccccc34)C(=O)O)c(C)c2oc1=O (some centres not stated)	-27%
CC(=O)N1CCc2cc(S(=O)(=O)NCCC(=O)Nc3ccc4c(c3)OCCO4)ccc21	-5%
CCn1cc(/C=C(\NC(=O)c2ccccc2Cl)C(=O)N2CCOCC2)c2ccccc21	-3%
O=C(CSc1nnc(CNC(=O)c2ccccc2F)o1)Nc1cccc(C(F)(F)F)c1	-16%

Compound activity (PubChem)

Some of the compounds tested (hit frequency here may not be typical).
